Assay outcomes: PubChem, several laboratories
PABP polyA inh – blocks human PABP binding to poly(A) RNA | 1% of 290,000 active | inhibition, % at 35 µM | fluorescence polarization;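 active = 50% or more with normal probe brightness, or confirmed in later tests; about a fifth of its hits are not listed in these tables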;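 also: calls also rest on retests at 20 µM and on dose response follow-up; controls were probe without protein and protein plus probe with vehicle; some compounds called inactive have numbers as strong as hits; many hits fall short of the cut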
Target sequence (P11940 whole entry, looked up): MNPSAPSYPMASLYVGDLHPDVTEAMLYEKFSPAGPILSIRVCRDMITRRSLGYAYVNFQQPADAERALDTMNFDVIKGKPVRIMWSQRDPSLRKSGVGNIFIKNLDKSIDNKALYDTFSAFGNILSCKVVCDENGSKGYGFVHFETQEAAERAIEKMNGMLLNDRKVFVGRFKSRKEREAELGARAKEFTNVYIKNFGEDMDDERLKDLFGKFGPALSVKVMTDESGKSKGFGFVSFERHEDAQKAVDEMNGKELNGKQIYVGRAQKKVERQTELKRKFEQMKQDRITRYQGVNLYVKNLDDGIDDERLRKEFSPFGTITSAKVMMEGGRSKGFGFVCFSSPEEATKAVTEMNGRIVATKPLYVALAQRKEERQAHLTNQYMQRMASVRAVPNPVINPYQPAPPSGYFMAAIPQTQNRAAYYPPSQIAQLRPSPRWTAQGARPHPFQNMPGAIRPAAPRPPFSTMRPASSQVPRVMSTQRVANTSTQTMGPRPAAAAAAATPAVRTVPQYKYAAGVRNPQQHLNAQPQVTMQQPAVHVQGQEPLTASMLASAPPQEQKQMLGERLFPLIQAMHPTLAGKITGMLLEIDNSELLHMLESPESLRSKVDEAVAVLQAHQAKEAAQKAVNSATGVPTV
MT1-MMP act inh – inhibitors of human MT1-MMP activation; HT1080 RFP-PRO-GFP cells, GFP/RFP ratio fluorescence, overnight; percent of plate control window, DMSO zero; GFP/RFP ratio change, % at 20 µM; 0.061% of 360,000 active;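 active = GFP/RFP ratio change of at least 30% with cell ATP level not reduced by more than half and red fluorescence within 50% of control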; also: strong numbers were not always called active
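Assay system: HT1080 RFP-PRO-GFP cells | Dosing: 20 µM single dose, 1% DMSO | Incubation: Cells overnight before dosing, compound overnight, 37 °C, 5% CO2 | Evaluation: GFP/RFP fluorescence ratio | Control set: DMSO-only wells and HT1080 RFP-L50D-GFP cell wells as references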
UUG fidelity – modulators of start codon recognition fidelity in yeast. S. cerevisiae UUG-firefly luciferase reporter, luminescence/redox ratio. activity score, % at 18.7 µM. 0.13% of 350,000 active;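 active = replicate mean at a twofold rise or more, about +100% in these data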;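 also: firefly luciferase made from a UUG start codon reports start codon fidelity; reporter light over untreated wells divided by growth signal over untreated wells; some hits fall short of that in this replicate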
eIF4H inh – inhibitors of RNA binding by human eIF4H; Q15056; eIF4H fluorescence polarization binding assay; inhibition, % at 35 µM; 0.94% of 290,000 active;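 active = 50% or more with normal probe brightness, or confirmed in later tests; about a fifth of its hits are not listed in these tables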;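 also: calls also rest on retests at 20 µM and on dose response follow-up; 0% = protein and probe with vehicle and 100% = probe without protein; strong numbers were not always called active; many hits fall short of the cut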
HIV Env fusion – HIV envelope-mediated fusion inhibition | HeLa-JRFL Env/CEM21 cell fusion, luciferase | inhibition, % at 12.3 µM | 1.1% of 360,000 active | AID 651610;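 active = mean replicate inhibition score of at least 50 and every replicate individually at or above 50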;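 also: 0% = plate neutral controls and 100% = maraviroc near 300 nM; one replicate is shown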
Rce1 inhib – blocks yeast Ras-converting enzyme; yeast membranes, quenched prenylated peptide cleavage fluorescence; calls only; 0.27% of 290,000 active;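 active = fall in fluorescence gain of 50% or more versus controls, with final raw signal at or below 3038400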;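 also: plate controls were neutral control wells for no effect and wells lacking membranes for full effect; tested at 10 µM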
Target sequence (Q03530 whole entry, looked up): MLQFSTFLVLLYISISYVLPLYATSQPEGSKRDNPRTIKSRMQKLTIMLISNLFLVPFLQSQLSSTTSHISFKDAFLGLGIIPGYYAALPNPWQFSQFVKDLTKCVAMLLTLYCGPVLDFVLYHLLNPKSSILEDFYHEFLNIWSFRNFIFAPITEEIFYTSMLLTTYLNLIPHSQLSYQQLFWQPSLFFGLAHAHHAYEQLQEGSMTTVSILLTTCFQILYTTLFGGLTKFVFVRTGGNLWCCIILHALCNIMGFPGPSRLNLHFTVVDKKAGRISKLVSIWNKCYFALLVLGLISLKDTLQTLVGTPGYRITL
CSC inhib – cancer stem cell inhibition; 1.1% of 300,000 active; cancer stem cell-like cells viability, luminescence; inhibition, % at 7.5 µM;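 active = mean at 75% or more and at least half the replicates too; tested in HMLE shEcad cells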;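 also: 0% = median of negative and 100% = median of positive control wells; the first replicate is given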
eIF4H inh retest – also measured in eIF4H inh; calls as there; inhibition, %; compound at 20 µM; confirmation average;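 mean of two retest wells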
PABP polyA inh retest – second read-out of PABP polyA inh, no call of its own (marks repeat the call); inhibition, %; compound at 20 µM; confirmation repeats;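 mean of two retest wells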
MT1-MMP act inh RFP – second read-out of MT1-MMP act inh, no call of its own (marks repeat the call); RFP signal change, %; measured here: RFP expression control read;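 0 = vehicle wells; hits needed this value within 50% of zero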
Numbers without * were called inactive; i = inactive; / = no result given. These rows are one share of the data, so the mix of outcomes need not match the whole.

SMILES	PABP polyA inh	MT1-MMP act inh	MT1-MMP act inh RFP	UUG fidelity	eIF4H inh	HIV Env fusion	Rce1 inhib	CSC inhib	others
COc1ccccc1N1CCN(C(=O)CSc2ccccc2)CC1	13	0	-1	5	-11	/	i	-1
C/C(=N\NC(=O)c1cc(C)nc2ccccc12)c1ccccn1	/	9	-7	-13	/	61*	/	96*
CCNc1nc2c(c(=O)[nH]c(=O)n2C)n1Cc1ccc(F)cc1	-6	3	5	-9	5	11	i	-17
COc1ccc(NS(=O)(=O)c2ccc(NS(=O)(=O)c3cccs3)cc2)c(OC)c1	8	-1	5	-6	8	3	/	-3
Fc1ccc(COc2ccc(C(=S)N3CCCC3)cc2)cc1	0	-2	-6	-27	4	-48	i	10
O=C(Nc1cccc(F)c1)Nc1ccnn1C1CCN(C(=O)CCN2CCCO2)CC1	0	-2	3	5	2	-14	i	-3
CCOC(=O)C1=C(C)NC(=O)NC1c1ccc(OC(=O)c2ccco2)cc1 (stereo not drawn)	1	0	4	-16	-3	/	i	-11
Cc1ccc(OCc2ccc(Br)cc2)c([N+](=O)[O-])n1	-2	/	/	/	-6	-126	i	9
CC1CCCC(NC(=O)COC(=O)c2cccs2)C1C (stereo not drawn)	/	1	1	-7	/	/	/	-13
CCOC(=O)c1cccc(NC(=O)CSc2nnc(C3CCCCC3)n2C)c1	4	1	5	5	7	20	/	-15
Cc1ccc(NC2CCCN(C(=O)CCN3CCOCC3)C2)cc1C (stereo not drawn)	-6	-4	4	4	0	-289	i	8
CCN(CC(=O)NCCc1ccc(S(N)(=O)=O)cc1)Cc1ccccc1	2	0	-2	-15	-9	13	i	-4
CCc1ccc(N2CC(C(=O)OCC(=O)NC3CCS(=O)(=O)C3)CC2=O)cc1 (stereo not drawn)	31	1	2	-9	9	-18	i	6
COc1ccc(NC(=O)N2CCCC(C(=O)NCc3ccccc3F)C2)cc1 (stereo not drawn)	2	0	3	-16	-6	-7	i	-3
Nc1ccn([C@@H]2O[C@H](CNCc3ccc(-c4cc(C(F)(F)F)ccc4Cl)o3)[C@@H](O)[C@H]2O)c(=O)n1	/	0	5	-9	/	-20	/	/
CC1C(=O)N(Cc2cn(CCC3OCCO3)nn2)CCS(=O)(=O)N1Cc1ccc(-c2cccc(CO)c2)cc1 (stereo not drawn)	/	1	4	-17	/	0	/	/
COc1ccc(Cl)cc1C(=O)Nc1cccnc1Cl	-6	0	1	-26	0	-10	/	-23
CC(=O)c1ccc(OCC(O)CN2CCC(C)CC2)cc1 (stereo not drawn)	3	-3	4	-14	-4	-5	i	3
O=C(Nc1ccc(N2CCOCC2)cc1)C1CC(=O)N(c2ccc(Cl)cc2)C1 (stereo not drawn)	1	-7	-1	/	-15	10	i	-2
COc1ccccc1-n1c(N)cc(=O)nc1SCC(=O)Nc1cc(C)on1	-3	0	0	/	-1	8	i	-16
O=C(/C=C\c1ccccc1[N+](=O)[O-])Nc1ccccc1	4	1	-2	/	-16	-34	i	-9
CCC(CC)C(=O)OCC(=O)Nc1cccc(S(=O)(=O)N(C)c2ccccc2)c1	11	4	2	/	0	7	i	4
Cc1nc(NCCNC(=O)c2ccco2)c2c(C)c(C)sc2n1	11	4	-1	-7	-6	13	/	-17
COc1ccc(NC(=O)CNc2ccc(OC)c(S(=O)(=O)N3CCOCC3)c2)cc1	/	4	-3	-2	/	6	/	/
Cc1cccc(NC(=S)NC2CC3CCCC(C2)N3Cc2cccs2)c1 (stereo not drawn)	-9	4	-4	-21	-6	/	i	9
CCN(C[C@H]1N[C@@](C)(C(=O)OC)[C@H]2C(=O)N(Cc3ccccc3)C(=O)[C@@H]12)S(=O)(=O)c1ccc(F)cc1	/	0	1	9	/	37	/	/
CCn1c(N2CCN(S(=O)(=O)c3ccc(F)cc3)CC2)nc2ccccc21	14	-10	-9	-19	5	-1	i	80*
COc1ccc(NS(=O)(=O)c2cccc(C(=O)N3CCCC(C)C3)c2)cc1 (stereo not drawn)	/	-1	-5	2	/	-2	i	3
Cc1cc(=O)oc2cc(OC(C)C(=O)Nc3ccc(C(N)=O)cc3)ccc12 (stereo not drawn)	/	4	5	-21	/	-7	/	11
COC(=O)C1=C(C)NC(=O)/C1=C\c1cc(C)n(-c2ccccc2F)c1C	11	-20	8	/	11	-20	i	-2
Cc1ccc(C)c(C(=O)CC2(O)C(=O)Nc3ccccc32)c1 (stereo not drawn)	-1	3	0	-15	-1	/	i	-5
CS(=O)(=O)N(CC(=O)N1CCCC1)c1ccc(OCc2ccccc2)cc1	10	6	-4	-18	5	/	i	-17
O=C(NCCS(=O)(=O)NCc1ccc(Cl)cc1)c1ccccc1	/	-7	-1	-19	/	2	i	0
O=C(CN(C(=O)c1csnn1)c1ccc(F)c(Cl)c1)NC1CCCCC1	-2	4	2	3	-2	-18	i	/
O=C(NCCC1=CCCCC1)c1ccc(CN2CCOCC2)cc1	1	-1	4	-16	3	/	i	12
Cc1oc2ccc(OCc3ccccc3Cl)cc2c1C(=O)O	4	0	5	-8	-4	-3	i	6
C=C(C)CC1(NC(C)c2ccccc2)CCCCC1 (stereo not drawn)	8	-4	2	-11	3	/	i	-9
Cc1ccn(CCC(=O)NC2CC(C)(C)Cc3c2cnn3-c2ccccc2C)n1 (stereo not drawn)	11	-4	0	-1	-4	-10	i	7
O=C(c1ccco1)N1CCN(C2CN(CCc3ccccc3)S(=O)(=O)C2)CC1 (stereo not drawn)	/	4	3	-11	/	7	/	/
Cc1ccc(S(=O)(=O)N2CCN(CC(O)c3ccccc3)CC2)cc1 (stereo not drawn)	-8	0	2	-16	4	-9	i	2

Reprinted at random: 2 entries already listed
SMILES	PABP polyA inh	MT1-MMP act inh	MT1-MMP act inh RFP	UUG fidelity	eIF4H inh	HIV Env fusion	Rce1 inhib	CSC inhib	others
O=C(NCCC1=CCCCC1)c1ccc(CN2CCOCC2)cc1	1	-1	4	-16	3	/	i	12
Cc1ccn(CCC(=O)NC2CC(C)(C)Cc3c2cnn3-c2ccccc2C)n1 (stereo not drawn)	11	-4	0	-1	-4	-10	i	7

A stretch of the results above:
SMILES	PABP polyA inh	MT1-MMP act inh	MT1-MMP act inh RFP	UUG fidelity	eIF4H inh	HIV Env fusion	Rce1 inhib	CSC inhib	others
O=C(NCCC1=CCCCC1)c1ccc(CN2CCOCC2)cc1	1	-1	4	-16	3	/	i	12
Cc1oc2ccc(OCc3ccccc3Cl)cc2c1C(=O)O	4	0	5	-8	-4	-3	i	6
C=C(C)CC1(NC(C)c2ccccc2)CCCCC1 (stereo not drawn)	8	-4	2	-11	3	/	i	-9
Cc1ccn(CCC(=O)NC2CC(C)(C)Cc3c2cnn3-c2ccccc2C)n1 (stereo not drawn)	11	-4	0	-1	-4	-10	i	7
O=C(c1ccco1)N1CCN(C2CN(CCc3ccccc3)S(=O)(=O)C2)CC1 (stereo not drawn)	/	4	3	-11	/	7	/	/
Cc1ccc(S(=O)(=O)N2CCN(CC(O)c3ccccc3)CC2)cc1 (stereo not drawn)	-8	0	2	-16	4	-9	i	2

Continued.
SMILES	PABP polyA inh	MT1-MMP act inh	MT1-MMP act inh RFP	UUG fidelity	eIF4H inh	HIV Env fusion	Rce1 inhib	CSC inhib	others
Cc1csc(=O)n1CCC(=O)OCC(=O)Nc1ncc(Cl)cc1Cl	/	-1	4	-10	/	1	i	-11
O=C(CN1C(=O)c2ccccc2C1=O)Nc1ccccc1C(=O)NC1CCCCC1	-8	11	5	-11	-3	/	i	4
Cc1ccc2c(c1)N(C(=O)CCC(=O)N1CCN(c3cccc(C)c3C)CC1)CCO2	-18	-2	-31	9	-4	36	i	18
C[n+]1c(/C=C/c2ccc3c(c2)OCO3)ccc2ccccc21	-6	-7	-2	/	6	-113	i	-12
O=C(CN1CCOCC1)N1CCCc2ccccc21	4	5	3	-15	6	-2	i	-11
CC(Cl)C(=O)Nc1c2c(nn1-c1ccccc1)CSC2 (stereo not drawn)	2	0	0	-25	0	1	i	12
O=C1/C(=C2/NCCN2C2CC(=O)N(c3ccccc3)C2=O)CC/C1=C\c1ccccc1 (stereo not drawn)	-3	-3	2	/	1	22	i	-3
COc1ccccc1NC(=O)NCC1(N(C)C)CCCCC1	6	0	2	-21	-2	4	i	-24
CN(C)c1ccc(C(=S)N2CCCC2)cc1Br	4	-2	-1	-20	0	3	i	-7
Cn1nc(-c2ccc(Cl)cc2)c2cc(C(=O)NCCCN3CCCC3)sc21	-10	-4	-6	30	-6	-12	i	82*
COc1cccc(NC(=O)CN(C)C(=O)c2c(C)nn(Cc3ccc(C)cc3)c2Cl)c1	/	-2	-4	-1	/	11	i	-3
Cc1ccc2c(c1)C1C=CCC1C(C(=O)O)N2 (stereo not drawn)	5	/	/	/	89	/	i	2	eIF4H inh retest=0;PABP polyA inh retest=8
CCC(C)(C)NC(=O)c1ccc(S(=O)(=O)N2CCCCCC2)cc1	8	0	-1	/	-6	-13	i	-6
Cc1cccc(OCCCC(=O)Nc2ccc(S(=O)(=O)Nc3nccs3)cc2)c1C	4	-5	3	21	4	9	i	8
CC(=O)Nc1ccc(NC(=O)CSCc2ccccc2Cl)cc1	/	4	3	-14	/	5	i	4
Cc1[nH]c2ccccc2c1SCc1n[nH]c(=S)n1C	-10	13	1	31	-3	0	i	-6
O=C(CC1S/C(=N/N=C/c2ccco2)NC1=O)Nc1ccccc1 (stereo not drawn)	6	4	2	-7	4	1	i	-16
Cc1ccc(-c2nnn(CC(=O)N3CCCc4ccccc43)n2)cc1	1	-1	-1	-3	6	-13	i	10
Cc1ccc(S(=O)(=O)c2cn(C)c3cc(N4CCN(C)CC4)c(F)cc3c2=O)cc1	-6	1	3	-15	-8	2	i	-1
O=C(NC1CC1)c1cccc(NC(=O)C2CC2)c1	/	4	10	-2	/	-34	/	/
Nc1ccccc1N=Cc1ccc(-c2cccc(Cl)c2)o1	10	-2	2	-17	36	-101	i	77*
Nc1nc2n(n1)C(c1ccco1)CC(c1ccc(Cl)c(Cl)c1)N2 (stereo not drawn)	14	-10	-1	-15	-15	-24	i	18
Clc1ccccc1Cn1nnc2c(NCCN3CCOCC3)ncnc21	3	4	-1	-23	8	-61	i	/
O=C(Cc1ccc(Cl)cc1)Nc1ccccc1N1CCOCC1	-17	-4	-6	-20	-5	/	i	-1
Cc1ccc(S(=O)(=O)/N=C(/NC(=S)Nc2ccccc2)c2ccccc2)cc1	1	-5	-7	-13	-1	-417	i	5
CCC1(C)Cc2c(sc3[nH]c(=S)[nH]c(=S)c23)CO1 (stereo not drawn)	1	2	2	-23	-2	8	i	-10
COCCNC(=O)c1ccc(C(=O)C(=O)c2ccccc2)cc1	17	0	0	/	8	0	i	-6
CCC(=O)Nc1nnc(/C=C/c2ccc(OC)cc2)s1	-6	0	-1	/	-4	-18	i	-7
COc1ccc(OC)c(-n2c(=S)[nH]c3cc(C(=O)N4CCCCC4)ccc3c2=O)c1	-2	3	2	3	7	-25	i	-18
COc1cccc(-c2cccc(NC(=O)C3CCN(Cc4ccc(C)o4)CC3)c2)c1	-6	-1	3	13	-3	2	i	6
CSc1nc2c(c(=O)[nH]c(=O)n2C)n1CCCc1ccccc1	2	2	1	-13	-10	13	i	-3
CCOC(=O)N1CCC(NC(=O)CNS(=O)(=O)c2ccc(Br)s2)CC1	-5	-1	-3	-16	-9	/	i	-4
CSc1nnc(NC(=O)c2nc(S(=O)(=O)Cc3ccc(C)cc3)ncc2Cl)s1	/	-11	-1	-16	/	74*	i	104*
CCO/C=C1\SC(=S)N(c2ccc(Cl)cc2)C1=O	-1	25	48	-11	-6	29	i	-7
CN(C)c1ncnc2c1ncn2[C@H]1CN(Cc2ccco2)C[C@@H](CO)O1	/	4	8	-6	/	2	/	/
O=C(NC(=S)NCc1cccnc1)c1cccc2ccccc12	-7	-5	-1	/	-14	-7	i	-9
CCOc1ccc(NC(=O)C2CCCN(S(=O)(=O)c3c(C)n[nH]c3C)C2)cc1 (stereo not drawn)	4	-1	-4	8	-9	10	i	-5
